RGS16-Gao HTS: modulates binding between human RGS16 and Galphao | O15492+P09471 | bead-based flow cytometry RGS16-Galphao binding, fluorescence; actives lie on both sides | binding response (% of control), % at 10 µM | 220,000 tested, 0.38% active | AID 1441;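 active = below 25% or above 175%, edge rows of some plates excepted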;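 also: Galphao activated by GDP with aluminum fluoride before binding; 100% = wells without compound and 0% = beads without RGS; some results beyond the cut were filed as inactive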
Target sequence (O15492 whole entry, looked up): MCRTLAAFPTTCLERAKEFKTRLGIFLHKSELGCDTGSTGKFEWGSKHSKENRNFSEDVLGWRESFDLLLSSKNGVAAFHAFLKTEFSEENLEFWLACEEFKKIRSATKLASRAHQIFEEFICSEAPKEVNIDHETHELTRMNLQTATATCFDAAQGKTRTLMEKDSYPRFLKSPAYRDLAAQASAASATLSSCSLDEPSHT
Target sequence (P09471 whole entry, looked up): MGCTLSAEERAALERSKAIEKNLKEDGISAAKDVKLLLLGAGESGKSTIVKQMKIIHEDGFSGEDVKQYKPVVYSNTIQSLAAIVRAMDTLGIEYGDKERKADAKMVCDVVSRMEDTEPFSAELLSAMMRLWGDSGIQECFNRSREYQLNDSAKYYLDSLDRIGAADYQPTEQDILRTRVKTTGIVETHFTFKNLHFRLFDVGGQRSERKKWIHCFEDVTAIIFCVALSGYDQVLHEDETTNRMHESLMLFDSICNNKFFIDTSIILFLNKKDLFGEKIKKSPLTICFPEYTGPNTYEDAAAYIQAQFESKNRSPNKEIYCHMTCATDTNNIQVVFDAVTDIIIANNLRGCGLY
Insulin prom inh: TRM-6 insulin promoter activity inhibition; TRM-6 cells (human fetal islet line), insulin promoter-eGFP reporter, imaging; reporter expression induced with tamoxifen; 130,000 tested, 0.9% active; AID 1273; inhibition, % at 2 µM;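 active = inhibition above the mean plus 3 SD, with well images judged a real hit on visual review, cut at about 60% in these data, passing the limit was not always enough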
PKD1 inh: inhibitors of human PKD1 kinase; PKD1 kinase fluorescence polarization assay; inhibition, %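 (about 10 µM by stock and volumes)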; 200,000 tested, 0.056% active;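 active = inhibition of 50% or more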;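 also: controls were vehicle for no effect and a reference inhibitor for full effect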
HSV replic up: HSV replication enhancement; AID 1956; 220,000 tested, 0.005% active; HSV replication augmentation in cells, fold increase; maximum fold increase;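 active = peak rise of 1.5-fold or more in the series; tested in PC3 cells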;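 also: first round at 10 µM; read as green reporter fluorescence; hits show the peak of a series up to 25 µM; 1 = signal of infected wells without compound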
GALR2 ag: GALR2 (human) receptor agonism; activation, %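 (tested at 5 µM)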; GALR2-expressing cells, agonist activation read-out; 140,000 tested, 0.48% active;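 active = above mean plus 3 SD of all compounds, about 5% in these data, not always enough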;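 also: 0% = vehicle buffer wells and 100% = reference agonist at full effect; tested in CHO reporter cells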
Target sequence (O43603 whole entry, looked up): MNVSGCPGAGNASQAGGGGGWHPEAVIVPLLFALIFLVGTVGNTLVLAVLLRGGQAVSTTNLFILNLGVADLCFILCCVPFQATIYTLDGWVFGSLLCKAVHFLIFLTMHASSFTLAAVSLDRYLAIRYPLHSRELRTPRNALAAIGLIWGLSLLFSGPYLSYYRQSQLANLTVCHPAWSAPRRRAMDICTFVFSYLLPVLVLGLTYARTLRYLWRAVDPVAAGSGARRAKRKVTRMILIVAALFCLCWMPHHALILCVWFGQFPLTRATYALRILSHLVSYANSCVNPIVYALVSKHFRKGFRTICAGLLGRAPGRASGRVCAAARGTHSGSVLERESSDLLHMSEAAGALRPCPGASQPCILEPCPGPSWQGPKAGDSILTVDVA
Insulin prom inh cell count: recorded beside Insulin prom inh, whose call it bears; normalized cell count, %; measured here: cell count, toxicity; reference of the scale not given here;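 cells exposed to compound for 48 h; stained nuclei by imaging scaled within each plate; lower means fewer cells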
HSV replic up primary fold: second read-out of HSV replic up, no call of its own (marks repeat the call); fold increase; compound at 10 µM; measured here: primary screen fold increase 10 uM; tested in PC3 cells;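 GFP signal in the first replicate; 1 = infected wells without compound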
Active calls of the source: *; i = inactive; / = not tested or not shown.

Screens in order – Insulin prom inh, GALR2 ag, Insulin prom inh cell count, PKD1 inh, HSV replic up, RGS16-Gao HTS, HSV replic up primary fold
> O=C(CCN1C(=O)/C(=C/c2cccs2)SC1=S)Nc1ccccn1
 : -15, /, 128, 4, i, 99, 1.2
> Cc1cccc(C2(c3cccc(C)c3)CC2C(=O)NCC2CCCO2)c1 (configuration not stated)
 : /, 0.0, /, -4, i, 107, 1.1
> O=C(CCC(=O)OCC(F)(F)C(F)F)Nc1ccc(Cl)cc1
 : /, -0.7, /, -7, i, 101, 0.91
> CC(=O)c1c(C)nc(-c2ccc(Cl)cc2)nc1N
 : /, /, /, -6, i, 110, 0.89
> N=c1c2c3c(sc2ncn1N)CCC3
 : /, /, /, /, i, 103, 0.87
> C/C(=N\NC(=O)Cn1ccc(C(F)(F)F)n1)c1ccc2c(c1)OCO2
 : -19, /, 90, -6, i, 101, 1
> Cc1ccc(C2/C(=C(/O)c3cnn(-c4ccccc4)c3C)C(=O)C(=O)N2CCN2CCOCC2)o1 (configuration not stated)
 : 43, -1.2, 86, -2, i, 98, 0.68
> C=CCOc1ccc2c(CC)cc(=O)oc2c1C
 : 41, 0.7, 166, -1, i, 101, 0.92
> S=C(Nc1ccc(Oc2ccc(NC(=S)NC3CCCCC3)cc2)cc1)NC1CCCCC1
 : 0, -0.9, 148, -6, i, 102, 0.96
> CCOc1ccc2nc(C)cc(Nc3ccc4c(c3)OCCO4)c2c1
 : 35, -0.8, 50, 9, i, 109, 0.63
> CCOC(=O)c1ccc2c(c1)N(Cc1ccccc1C)C(=O)c1ccccc1S2=O (configuration not stated)
 : 33, -3.2, 100, 8, /, 96, /
> Cc1ccc(S(=O)(=O)Nc2cccnc2)cc1
 : -68, -2.1, 78, -4, i, 106, 0.91
> CC(C)(C)n1nnnc1C(c1ccccc1F)N1CCN(C2CCCC2)CC1 (configuration not stated)
 : /, 0.1, /, -8, i, 103, 1
> CCCC(=O)NC(=S)Nc1cccc2c(O)cccc12
 : /, /, /, -6, i, 105, 1
> COc1ccc(CN2C(=O)c3ccccc3C2C(=O)NCC2CCCO2)c(OC)c1 (configuration not stated)
 : /, -1.5, /, -4, i, 101, 1
> CCOC(=O)C1CCN(c2nc(-c3ccccc3)nc3c2oc2ccccc23)CC1
 : 29, -0.4, 133, -6, i, 82, 0.99
> Cc1ccccc1-c1nc2ccccc2c(=O)n1C1CCS(=O)(=O)C1 (configuration not stated)
 : -11, -1.6, 113, -6, i, 104, 0.74
> CCC(C)NC(=O)c1ccc(CSCc2cccc(F)c2)o1 (configuration not stated)
 : -14, -2.6, 65, -9, i, 109, 0.85
> Cc1cc(C)cc(NC(=O)CSc2nc3c(c(=O)n2C)SC(C)C3)c1 (configuration not stated)
 : /, -0.6, /, -19, i, 98, 1
> Cc1ccc(-c2nnc(SCC(=O)N/N=C/c3c(C)nn(-c4ccccc4)c3C)n2-c2ccc(C)cc2)cc1
 : -21, -0.4, 100, 9, i, 106, 0.86
> Cc1nn(C)cc1/C=N\NC(=O)Cc1ccc([N+](=O)[O-])cc1
 : 14, -2.1, 98, 0, i, 160, 1
> Cc1ccc(O)c(NC(=O)CCCC(=O)O)c1
 : /, -0.3, /, -10, i, 109, 1
> COc1cc(OC)c(OC)cc1CN1CCCC(C(=O)c2sccc2C)C1 (configuration not stated)
 : /, /, /, /, i, 103, 0.76
> CC(NC(=O)CN(C)CC(=O)Nc1ccc(F)c(F)c1F)c1ccccc1 (configuration not stated)
 : 27, /, 211, -6, i, 116, 0.93
> CCC1(C)CC(CC(=O)O)(c2ccccc2OC)CCO1 (configuration not stated)
 : -46, -2.8, 92, -19, i, 103, 0.92
> C=CCn1cccc(C(=O)Nc2cc(OC)c(OC)c(OC)c2)c1=O
 : -19, /, 27, -7, i, 113, 0.94
> C=CCNC1=C(Cl)C(=O)N(c2ccccc2Cl)C1=O
 : -22, -1.0, 133, -13, i, 109, 0.79
> CCCc1ccc(-c2cc(C(=O)NCCc3ccc(S(N)(=O)=O)cc3)c3ccccc3n2)cc1
 : /, -2.1, /, 5, i, 102, 1.1
> COc1cc(S(=O)(=O)n2nc(C)cc2C)c(OC)cc1Cl
 : 0, -1.1, 90, 0, i, 95, 1.1
> COc1ccc(Cl)cc1NC(=O)C(C)OC(=O)c1ccc(NS(=O)(=O)c2ccc3[nH]c(=O)[nH]c3c2)cc1 (configuration not stated)
 : 14, -2.6, 65, -7, i, 66, 1.1
> N/C(=N\OC(=O)Nc1ccccc1)c1ncc([N+](=O)[O-])s1
 : /, /, /, /, i, 104, 0.7
> Cn1cc(SCC(=O)Nc2ccc3c(c2)OCCO3)c2ccccc21
 : /, -7.0, /, -7, i, 128, 0.97
> COc1cc(OC)cc(-c2nnc(SCC(=O)N3CCCc4ccccc43)o2)c1
 : -29, -0.6, 104, -11, i, 101, 0.86
> CC(C)c1onc(C(=O)N2CCCCCC2)c1[N+](=O)[O-]
 : -18, /, 90, -2, i, 97, 0.97
> CCn1c(SCc2ccccc2)nnc1-c1cccnc1
 : 0, /, 130, 7, i, 101, 0.98
> CC(C)C(=O)Nc1ccc(N2CCCC2)cc1
 : -11, -2.4, 134, 1, i, 99, 1
> CCCCCSc1nnc(-c2ccccc2NC(C)=O)c(=O)[nH]1
 : /, /, /, -5, i, 98, 1.1
> COc1ccc(NC(=S)N2CCCCC2c2cccnc2)cc1 (configuration not stated)
 : /, /, /, /, i, 109, 0.97
> CCc1ccccc1OCC(=O)Nc1ccc(S(N)(=O)=O)cc1
 : 32, 0.6, 81, -7, i, 97, 1
> CC(NC(=S)Nc1ccccc1Cl)C(c1ccccc1)N1CCOCC1 (configuration not stated)
 : -14, -3.0, 61, -11, i, 103, 1
> Cc1cc(C)cc(OCc2nnc(SCC(=O)c3ccc(Br)cc3)o2)c1
 : 28, -0.8, 125, -1, i, 98, 1
> CCOc1ccc(-c2nc(CSc3nncs3)cs2)cc1OC
 : -15, -1.6, 124, 2, i, 103, 0.71
> O=C(c1ccc(S(=O)(=O)N2CCOCC2)cc1)N1CCOCC1
 : -12, /, 87, 6, i, 98, 1.1
> Cc1cc(C)nc(-n2nc(C)cc2NC(=O)c2ccc(F)cc2F)n1
 : /, /, /, -1, i, 96, 0.93
> OC(CCCCN1CCCCC1)c1ccccc1 (configuration not stated)
 : 26, -3.1, 90, -8, i, 97, 0.92
> CC(=O)c1c(OC(=O)c2cccc(Cl)c2)c2ccccc2n1C
 : /, /, /, /, i, 97, 0.93
> Cc1csc(Sc2ccc(S(=O)(=O)N3CCCC3)cn2)n1
 : 8, /, 83, 1, i, 99, 1
> O=C(C1CCCN1S(=O)(=O)c1cccc2cccnc12)N1CCc2ccccc2C1 (configuration not stated)
 : /, -3.2, /, -9, i, 110, 1.2
> OC(COc1ccc(CN2CCSCC2)cc1)CN1CCCCC1 (configuration not stated)
 : /, /, /, -7, i, 108, 0.95
> CCOc1cc(S(=O)(=O)N(Cc2ccccc2)Cc2ccccc2)c(OCC)cc1-n1cnnn1
 : -51, -1.2, 47, -12, /, 94, /
> COC(=O)CC1Oc2ccc(C)cc2NC1=O (configuration not stated)
 : /, -2.1, /, -3, i, 99, 0.96
> O=c1cc(-c2ccc([N+](=O)[O-])cc2)c2ccc(O)cc2o1
 : /, /, /, -9, i, 103, 0.91
> CCOc1ccccc1NC(=O)CSc1nnc(Cn2c(=O)sc3ccccc32)n1C
 : /, -0.2, /, -3, i, 100, 0.88
> Cc1ccc(-c2cc(C(=O)OCC(=O)Nc3ncc(C(F)(F)F)cc3Cl)c3ccccc3n2)cc1
 : /, -1.1, /, 3, i, 90, 0.82
> O=C(O)CSCc1cn2cc(Cl)ccc2n1
 : 4, -1.2, 172, 0, i, 106, 0.99
> CC(C)c1ccccc1NC(=O)COC(=O)Cc1ccsc1
 : /, 0.1, /, -8, i, 96, 0.95
> O=C(Cc1ccccc1)c1ccc2c(c1)OCCO2
 : /, /, /, -10, i, 107, 1
> CCOC(=O)C1C(=O)NC(SCC(=O)OC)=C(C#N)C1c1ccccc1OCC (configuration not stated)
 : -373, -0.1, 45, -7, i, 104, 1.1
> Cc1ccc(C(=O)NNC(=O)C2CCCN(c3ncccn3)C2)cc1 (configuration not stated)
 : 21, -3.9, 113, 6, i, 150, 0.92
> CCOC(=O)c1[nH]c2ccccc2c1NC(=O)c1ccc(S(=O)(=O)N2CCCCC2)cc1
 : 7, -0.3, 83, -3, /, 106, /

Following part
Screens in order – Insulin prom inh, GALR2 ag, Insulin prom inh cell count, PKD1 inh, HSV replic up, RGS16-Gao HTS, HSV replic up primary fold
> C/C(Cc1ccccc1)=N\NC(=O)c1cc(C(C)(C)C)[nH]n1
 : 15, /, 139, 3, i, 97, 0.92
> Oc1cc2ccccc2cc1-c1n[nH]c(=S)n1Cc1ccco1
 : /, /, /, 5, i, 104, 0.97
> S=C(NC1CCCCC1)N1CCc2[nH]c3ccccc3c2C1
 : /, /, /, /, i, 99, 0.67
> COc1cccc(N2CCN(S(=O)(=O)c3ccc4nc(-c5ccccc5)[nH]c4c3)CC2)c1
 : 7, -2.5, 129, 1, i, 106, 0.91
> CC(C)Oc1ccccc1C(=O)NC(CO)C(=O)O (configuration not stated)
 : /, /, /, 0, i, 97, 1.1
> Cn1c(Cn2nnc3ccccc32)nnc1SCC(=O)N1CCc2ccccc21
 : /, -1.1, /, -1, i, 106, 1.1
> CCOC(=O)c1c(C)[nH]c(C)c1C(=O)CSc1nnc(-c2ccncc2)n1C
 : /, -1.5, /, -10, /, 99, /
> COc1ccc(C(C)=O)cc1COC(=O)c1cccc(N(C)C)c1
 : -17, 0.6, 87, -5, i, 93, 1
> Oc1ccc2oc3c(c2c1C=NCc1ccncc1)CCCC3
 : /, /, /, /, i, 103, 1.2
> NS(=O)(=O)c1ccc(CCNS(=O)(=O)c2ccccc2)cc1
 : /, /, /, 14, i, 102, 0.93
> COc1ccccc1-n1ccnc1SCC(=O)NC(C)(C)C
 : /, /, /, -2, i, 103, 0.98
> NC(=O)C1(N2CCCCC2)CCN(S(=O)(=O)c2cc(Cl)ccc2Cl)CC1
 : /, -0.4, /, -5, i, 105, 0.91
> CCN(CC)CCN(C(=O)c1ccc2c(c1)CCCC2)c1nc2ccc(F)cc2s1
 : /, /, /, -3, i, 89, 1
> Cc1cc(-c2ccccc2)n(-c2ccc(C(=O)NC(C)C)cc2)n1
 : -6, -1.3, 172, -3, i, 89, 0.85
> CSc1nc(N(C)C)nc(N(C)C#N)n1
 : /, /, /, -4, i, 94, 0.98
> C#CCOCCOCCOCCNc1nc(N2CCN(C(=O)[C@H](Cc3ccc(O)cc3)n3cc([C@@H](N)C(C)CC)nn3)CC2)nc(N2CCN(C(=O)[C@H](Cc3cc4ccccc4[nH]3)n3cc([C@@H](N)C(C)CC)nn3)CC2)n1 (some centres not stated)
 : /, /, /, 4, i, 93, 1.1
> O=C(NCCc1ccc(Cl)cc1)c1ccc(CNc2c(N3CCOCC3)c(=O)c2=O)cc1
 : /, /, /, /, i, 91, 1.1
> CC(C)(O)C#Cc1ccc(CN2CCN(Cc3ccccc3)C(CCO)C2)cc1 (configuration not stated)
 : /, /, /, -1, i, 96, 0.99

In a second layout: 2 of the compounds above.
Structure	Insulin prom inh	GALR2 ag	Insulin prom inh cell count	PKD1 inh	HSV replic up	RGS16-Gao HTS	HSV replic up primary fold
O=C(O)CSCc1cn2cc(Cl)ccc2n1	4	-1.2	172	0	i	106	0.99
Cc1ccc(O)c(NC(=O)CCCC(=O)O)c1	/	-0.3	/	-10	i	109	1

Looked up above.
`Cc1ccc(-c2nnc(SCC(=O)N/N=C/c3c(C)nn(-c4ccccc4)c3C)n2-c2ccc(C)cc2)cc1` in RGS16-Gao HTS is listed with 106
`CCOC(=O)C1C(=O)NC(SCC(=O)OC)=C(C#N)C1c1ccccc1OCC` (configuration not stated) in Insulin prom inh is listed with -373
`CCOc1cc(S(=O)(=O)N(Cc2ccccc2)Cc2ccccc2)c(OCC)cc1-n1cnnn1` in Insulin prom inh is listed with -51
`C#CCOCCOCCOCCNc1nc(N2CCN(C(=O)[C@H](Cc3ccc(O)cc3)n3cc([C@@H](N)C(C)CC)nn3)CC2)nc(N2CCN(C(=O)[C@H](Cc3cc4ccccc4[nH]3)n3cc([C@@H](N)C(C)CC)nn3)CC2)n1` (some centres not stated) in HSV replic up primary fold is listed with 1.1
`CCc1ccccc1OCC(=O)Nc1ccc(S(N)(=O)=O)cc1` in GALR2 ag is listed with 0.6
`COC(=O)CC1Oc2ccc(C)cc2NC1=O` (configuration not stated) in PKD1 inh is listed with -3
